Compound activity: PubChem BioAssay, National Center for Advancing Translational Sciences (NCATS)
G9a block: qHTS Assay for Inhibitors of Histone Lysine Methyltransferase G9a; Histone-lysine N-methyltransferase EHMT2 (Homo sapiens), Q96KQ7; G9a H3K9 monomethylation, AlphaScreen, 2 h; Potency, µM (series often up to 102 µM), for inactives: at the top dose activity, negative = inhibition, actives largely listed as inhibitors; hit rate 8.8% among 350,000; note: potency is the fitted concentration of half-maximal effect; % is set by controls: 0 for no effect and ±100 for the full control effect; nearly all actives have a fitted effect of over 75% in size
Target sequence (Q96KQ7 913-1193 limits assumed): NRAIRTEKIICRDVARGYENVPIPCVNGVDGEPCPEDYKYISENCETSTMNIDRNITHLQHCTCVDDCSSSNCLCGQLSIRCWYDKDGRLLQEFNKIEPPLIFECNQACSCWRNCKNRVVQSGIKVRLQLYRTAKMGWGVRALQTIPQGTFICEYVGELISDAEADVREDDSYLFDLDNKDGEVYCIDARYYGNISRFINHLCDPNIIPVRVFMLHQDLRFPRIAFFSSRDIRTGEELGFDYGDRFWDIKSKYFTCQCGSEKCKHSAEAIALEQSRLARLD
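Compounds were preincubated with 20 nM G9a for 15 min, after which biotinylated H3K9 peptide (500 nM) and SAM (20 uM) started a 2 h room-temperature reaction. Monomethylated product was quantified by antibody-based AlphaScreen chemiluminescence.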
GLS inhibitor: qHTS for Inhibitors of Glutaminase (GLS) | Glutaminase kidney isoform, mitochondrial (Homo sapiens), O94925 | GLS enzymatic activity, qHTS titration | Potency, µM (titrated, usually from 45.5 µM), inactives show top-dose activity change, negative = inhibition, actives largely listed as inhibitors | hit rate 0.21% among 410,000 | AID 624170, 2012; note: potency is the fitted concentration of half-maximal effect; % is set by controls: 0 for no effect and ±100 for the full control effect
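hKGA in 45 mM KH2PO4 (pH 8.2), 0.02% Tween-20 with compound, then 1mM L-Glutamine (stock as added) plus glutamate oxidase/HRP/Amplex red coupling mix. Fluorescence read initially and after 30 min at RT; signal change reflects glutamate formation.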
ERG-DNA inh: qHTS for Small Molecule Inhibitors of the ERG Ets/DNA interaction; Potency, µM (doses to about 76.9 µM), inactives show at the top dose FP activity, negative = inhibition, actives largely listed as inhibitors; fluorescence polarization, His-ERG Ets domain / labelled DNA; Transcriptional regulator ERG (Homo sapiens), P11308; hit rate 0.028% among 370,000; active = well fitted inhibition curve with a large enough effect in the polarisation, with a control signal flat; inconclusive = small, poorly fitted or top-dose-only effect, or effect the other way, or a change in a side signal; inactive = no such curve, though single readings can be large or run the other way; the % refers to the polarisation;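 note: polarization taken with two DNA probes labelled with fluorescein and Texas red; potency is the fitted concentration of half-maximal effect; % of control where 0% means no effect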
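His-tagged ERG Ets domain (1 uM in the protein solution; 300mM KCl, 50mM Tris-HCl, 1mM EDTA, 1mM DTT, pH 7.5) received compound, then a probe mix of 5 nM fluorescein-DNA and 100nM Texas-615-DNA. Fluorescence polarization was read for both dyes.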
PGK inhibitor: qHTS Assay to Find Inhibitors of Phosphoglycerate Kinase; Phosphoglycerate kinase, glycosomal (Trypanosoma brucei brucei), P07378; PGK/GAPDH coupled, Kinase-Glo luminescence, 60 min; Potency, µM (series often up to 57.5 µM), for the others: at the highest dose activity change, negative = inhibition, actives largely listed as inhibitors; hit rate 0.043% among 380,000; AID 602233, 2012; note: potency is the fitted concentration of half-maximal effect; % is set by controls: 0 for no effect and ±100 for the full control effect; nearly all actives have a fitted effect of over 60% in size
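Recombinant glycosomal PGK reaction used 1,3-bisphosphoglycerate generated in-well by GAPDH (100nM final) in 100mM TEA pH 7.6, 5mM MgCl2, 0.01% Tween-20. After 60 minutes at room temperature, ATP was read by Kinase-Glo Plus luminescence end-point.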
PI4K2A block: qHTS for small molecular inhibitors of PI4K2A; activity change, negative = inhibition, % at 76.9 µM; purified PI4K2A, ADP-Glo luminescence, 1 h; active compounds read low; hit rate 0.13% among 420,000; Phosphatidylinositol 4-kinase type 2-alpha (Homo sapiens), Q9BTU6; AID 1346378, 2018; in the data active = activity change below about -50%; inconclusive = mostly about -30% to -49%;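 note: -100% = wells without enzyme as full effect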
Target sequence (Q9BTU6 whole entry, looked up): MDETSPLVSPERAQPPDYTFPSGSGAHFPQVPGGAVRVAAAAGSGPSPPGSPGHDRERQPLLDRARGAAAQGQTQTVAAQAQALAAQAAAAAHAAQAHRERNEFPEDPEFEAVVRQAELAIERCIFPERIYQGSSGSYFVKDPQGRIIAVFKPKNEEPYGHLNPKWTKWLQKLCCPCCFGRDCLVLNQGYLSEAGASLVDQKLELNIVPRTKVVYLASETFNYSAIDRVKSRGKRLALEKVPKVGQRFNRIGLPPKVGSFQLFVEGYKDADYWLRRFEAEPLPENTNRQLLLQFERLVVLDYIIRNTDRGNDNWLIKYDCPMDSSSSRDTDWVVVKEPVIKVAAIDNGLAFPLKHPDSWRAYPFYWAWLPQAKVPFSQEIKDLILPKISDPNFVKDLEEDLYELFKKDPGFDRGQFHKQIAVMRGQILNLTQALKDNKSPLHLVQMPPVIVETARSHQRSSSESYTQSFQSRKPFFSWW
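ADP-Glo luminescence measured ADP generated by PI4K2A enzyme (4 ug/mL before mixing) with 1.2 mM PI substrate (pre-mix) and 300 microM ATP (pre-mix). Tris pH7.5 buffer with MgCl2, Triton X-100; 1 h reaction at ambient temperature.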
Pin1 inhibitor: qHTS Assay to Find Inhibitors of Pin1; Peptidyl-prolyl cis-trans isomerase NIMA-interacting 1 (Homo sapiens), Q13526; Pin1 FP peptide displacement, HiFluor488, 10 min; Potency, µM (top dose mostly 115 µM), inactives show at the highest dose activity, negative = inhibition, actives largely listed as inhibitors; hit rate 0.009% among 390,000; active = well fitted inhibition curve with a large enough effect in the polarisation, with a control signal flat, not every such curve was filed as active; inconclusive = small, poorly fitted or top-dose-only effect, or effect the other way, or a change in a side signal; inactive = no such curve, though single readings can be large or run the other way; the % refers to the polarisation; note: potency is the fitted concentration of half-maximal effect; % is set by controls: 0 for no effect and ±100 for the full control effect
Target sequence (Q13526 whole entry, looked up): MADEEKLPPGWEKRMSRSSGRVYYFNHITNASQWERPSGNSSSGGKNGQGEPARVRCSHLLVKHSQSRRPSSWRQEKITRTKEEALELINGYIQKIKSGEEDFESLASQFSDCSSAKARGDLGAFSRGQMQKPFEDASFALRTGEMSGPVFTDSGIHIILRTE
Active calls of the source: *; i = inactive; ? = inconclusive; . = no result given; [ ] = another dose, or the depositor's remark. Unless noted, calls come from the whole dose curve; as a rule, active = well fitted curve in the direction sought with a large enough effect; inconclusive = small, poorly fitted or top-dose-only effect, or another doubt; inactive = no such curve, though single readings can be large; an effect the other way counts as inactive or inconclusive.

no.	Molecule	G9a block	GLS inhibitor	ERG-DNA inh	PGK inhibitor	PI4K2A block	Pin1 inhibitor
1	Nn1c(SCC(=O)Nc2ccc(F)cc2)nnc1-c1ccccn1	?	-11%	-6%	-10%	0	-12%
2	Cn1c(-c2cccc(Br)c2)cnc1NCc1cccc(F)c1	4µM*	7%	0%	-7%	0	0%
3	COc1cccc(CC2(CO)CCN(S(=O)(=O)N(C)C)CC2)c1	.	0%	?	-2%	-7	-7%
4	O=C(NN(C(=O)c1ccccc1)c1ccccc1)c1ccccc1	22µM*	164%[activator]	3%	?	-8	-7%
5	CN(C)c1ccc(/C=N/NC(=O)C2CC2c2ccccc2)cc1 (stereo not drawn)	40µM*	10%	5%	-9%	5	-3%
6	CC(C)CNC(=S)N1CCN(C)CC1	4µM*	-3%	-15%	4%	5	-13%
7	CCN(Cc1ccncc1)Cc1ccc(Br)cc1	?	1%	2%	i	2	-10%
8	CCn1c(CSc2ncn[nH]2)nc2cc(C(=O)O)ccc21	.	-4%	35µM*	i	3	?
9	CN(C)CCOCCSc1ccc(Cl)cc1	26%[0.501 µM]	-4%	6%	-3%	6	0%
10	CC1CC(C)CN(CCOCCSc2ccc(Cl)cc2)C1 (stereo not drawn)	6.3µM*	-4%	-3%	-5%	1	-1%
11	COc1ccc(OC)c(CNc2ncc(-c3ccc(F)cc3)n2C)c1	.	4%	2%	i	8	1%
12	CS(=O)c1ccccc1-c1nc(-c2ccc([N+](=O)[O-])cc2)no1 (stereo not drawn)	.	0%	5%	-1%	0	3%
13	CCC(C)c1ccccc1NC(=O)C(C)N(C)Cc1cccc(OC)c1 (stereo not drawn)	10µM*	0%	-14%	-1%	5	2%
14	COc1ccc(CN2CCN(S(=O)(=O)c3ccccc3)CC2)cc1Br	13µM*	19%	2%	-6%	5	0%
15	O=C(Nc1ccccc1Oc1ccccc1)c1cccc([N+](=O)[O-])c1	.	-5%	-5%	-2%	0	-7%
16	CC(C)(C)S(=O)(=O)N1C[C@H]2CC/C=C\C/C=C\2[C@@H]1CCO	.	0%	.	-1%	-2	.
17	Cc1ccc(S(=O)(=O)N2CCOCC2)cc1NC(=O)CNCc1cccnc1	3.5µM*	-1%	-5%	-7%	4	-8%
18	COc1ccc(-c2sc3cc4c(cc3c2C#CCO)OCO4)cc1	0%[0.501 µM]	-3%	12%	-11%	-15	-3%
19	COc1ccc(CNC(c2ccccc2)c2ccc(Cl)cc2)cc1 (stereo not drawn)	5.6µM*	-6%	9%	-10%	0	-4%
20	CCOc1ccc(C(=O)NC(=S)N(Cc2ccccc2)Cc2ccccc2)cc1	.	-4%	0%	i	5	-3%

Just PGK inhibitor, for some of the entries so far:
nr | Molecule | PGK inhibitor
12 | CS(=O)c1ccccc1-c1nc(-c2ccc([N+](=O)[O-])cc2)no1 (stereo not drawn) | -1%
13 | CCC(C)c1ccccc1NC(=O)C(C)N(C)Cc1cccc(OC)c1 (stereo not drawn) | -1%

Four compounds picked at random from those above, as already listed:
no.	Molecule	G9a block	GLS inhibitor	ERG-DNA inh	PGK inhibitor	PI4K2A block	Pin1 inhibitor
11	COc1ccc(OC)c(CNc2ncc(-c3ccc(F)cc3)n2C)c1	.	4%	2%	i	8	1%
18	COc1ccc(-c2sc3cc4c(cc3c2C#CCO)OCO4)cc1	0%[0.501 µM]	-3%	12%	-11%	-15	-3%
6	CC(C)CNC(=S)N1CCN(C)CC1	4µM*	-3%	-15%	4%	5	-13%
4	O=C(NN(C(=O)c1ccccc1)c1ccccc1)c1ccccc1	22µM*	164%[activator]	3%	?	-8	-7%

Later entries
no.	Molecule	G9a block	GLS inhibitor	ERG-DNA inh	PGK inhibitor	PI4K2A block	Pin1 inhibitor
21	Cn1c(SCCN2CCCCC2)nnc1-c1ccccc1Br	?	6%	-5%	-6%	4	-7%
22	CC(NCC(=O)Nc1cc(Cl)cc(Cl)c1)c1ccccc1 (stereo not drawn)	0%	-2%	0%	.	-1	-3%
23	CN(C)c1ccc(C(=S)N2CCN(c3ccccc3)CC2)cc1	?	17%	3%	-2%	-3	13%
24	CCOC(=O)c1sc(=S)n(-c2ccc(C)cc2)c1N	8.9µM*	-8%	3%	7%	0	?
25	CCN(CC)c1ccc(/C=N/NC(=O)Nc2ccccc2)cc1	10µM*	15%	-6%	-9%	-2	-1%
26	CN(C)CCO/N=C(\c1ccc(Br)cc1)c1cccnc1	.	-1%	8%	i	1	7%
27	CCCOc1ccc(C2=NC(c3ccncc3)=Nc3ccc(C)cc3N2)cc1	?	2%	-8%	.	2	-8%
28	N#Cc1ccc(CSc2nnc(NC(=O)c3ccc4ncsc4c3)s2)cc1	.	4µM*	3%	?	0	131%[activator]
29	O=C(c1cccc(Cl)c1)N1CCN(Cc2ccccc2F)CC1	18µM*	-10%	-10%	9%	5	-4%
30	CCCCNC(=S)N1CCN(Cc2ccc3c(c2)OCO3)CC1	11µM*	-5%	12%	-4%	5	-12%
31	O=[N+]([O-])c1ccccc1/C=N/n1c(C2CCCCC2)n[nH]c1=S	1.3µM*	?	-4%	-1%	-3	-5%
32	Cc1cccc2sc(N(CCCN(C)C)C(=O)c3sc4ccccc4c3Cl)nc12	28µM*	-3%	.	-8%	0	-3%
33	COc1ccccc1N1CCN(Cc2ccc(-c3ccccc3[N+](=O)[O-])o2)CC1	45µM*	10%	3%	3%	6	-15%
34	COc1ccccc1OCCCCN1CCN(c2ccccc2OC)CC1	2µM*	21%	-2%	14%	4	-7%
35	Cc1cc(N2CCCCCC2)nc2ccccc12	.	-2%	7%	-1%	8	-1%
36	COc1ccccc1NS(=O)(=O)c1cccc(C(=O)N/N=C/c2c(CO)cnc(C)c2O)c1	-3%[12.7 µM]	14%	33%[activator]	8%	-8	?
37	CCOC(=O)/C(=N\Nc1ccccc1[N+](=O)[O-])c1csc(Nc2ccccc2)n1	?	11%	1%	0%	12	6%
38	CCN1CCN(CC(=O)Nc2cc3c(cc2C(C)=O)OCO3)CC1	3.5µM*	-4%	3%	4%	-3	-3%
39	Cc1ccc(OCC(=O)Nc2nnc(S(=O)(=O)N3c4ccccc4CC3C)s2)cc1 (stereo not drawn)	14µM*	13%	3%	0%	-1	-3%
40	Cc1ccc(-c2noc(-c3ccccc3OCC(=O)Nc3ccccc3[N+](=O)[O-])n2)cc1	?	5%	-9%	-7%	-3	9%
41	CCn1nc(C)c(NC(=O)c2ccc(Cl)cc2)c1C	3.5µM*	7%	-6%	-6%	-6	3%
42	COc1cc(C(=O)N2CCN(C3CCC(C)CC3)CC2)cc(OC)c1OC (stereo not drawn)	.	1%	-8%	-3%	5	-1%
43	COc1cccc(-c2nc(SCc3cccc(Br)c3)n3[nH]c(=O)cc3n2)c1	12%[59 µM]	11%	-8%	-16%	3	?
44	CCn1c(=O)n(CC)c2cc(N3CCCC3)c(NC(=O)c3ccc(OC)c(Br)c3)cc21	.	0%	15%	i	-7	?
45	C[C@H](O)[C@H](O)[C@H]1CNc2nc(N)[nH]c(=O)c2N1	1.4µM*	27%	1%	-8%	-5	?
46	COc1ccccc1N1CCN(Cc2cccs2)CC1	6.3µM*	?	.	-8%	0	-13%
47	CCOc1ccccc1NC(=O)c1cccc(N2C(=O)CCC2=O)c1	.	17%	-4%	-6%	-7	2%
48	CC(C)c1ccccc1OCCCCCN1CCOCC1	.	-3%	-10%	i	2	-5%
49	COc1ccc(CN(C)CC(=O)Nc2cccc(S(N)(=O)=O)c2)c(OC)c1OC	16µM*	1%	11%	-3%	-9	-1%
50	C=CCN(CC=C)CCOc1ccc(C)cc1[N+](=O)[O-]	13µM*	9%	-3%	8%	2	6%
51	O=C(O)c1ccnc(C(=O)O)c1	?	-2%	9%	-2%	-5	-10%
52	O=C(CN1CCCCCC1)N/N=C/c1ccc2ccccc2c1	-29%[59 µM]	13%	-11%	-6%	0	1%
53	Nc1ccc2nc(CCCCCCc3nc4ccc(N)cc4[nH]3)[nH]c2c1	45µM*	31%[activator]	8%	0%	5	-14%
54	S=c1[nH]ncn1/N=C/c1ccccn1	1.1µM*	-2%	-8%	i	1	-19%
55	COc1ccc(-n2c(CNc3ccc(C)cc3)nnc2SCc2ccccc2)cc1	?	4%	11%	i	0	-2%
56	O=C(CN1CCOCC1)Nc1ccc(OC(F)(F)F)cc1	7.1µM*	4%	-15%	-9%	-1	-13%
57	CC1CCN(CCCOc2ccc(OCc3ccccc3)cc2)CC1	40µM*	10%	-1%	0%	-1	-1%
58	CCOC(=O)Cc1csc(/C(=N/O)C(N)=O)n1	?	36%[activator]	-1%	-3%	-2	0%
59	Cc1cccc(CSc2ccc3nnc(-c4ccccn4)n3n2)c1	?	-13%	-3%	-5%	1	-6%
60	COc1ccccc1CNCC(=O)NCc1ccc(C)cc1	16µM*	-1%	0%	-3%	7	-13%

Filtered by structure, those above containing a thiophene ring, fused or not.
no.	Molecule	G9a block	GLS inhibitor	ERG-DNA inh	PGK inhibitor	PI4K2A block	Pin1 inhibitor
18	COc1ccc(-c2sc3cc4c(cc3c2C#CCO)OCO4)cc1	0%[0.501 µM]	-3%	12%	-11%	-15	-3%
32	Cc1cccc2sc(N(CCCN(C)C)C(=O)c3sc4ccccc4c3Cl)nc12	28µM*	-3%	.	-8%	0	-3%
46	COc1ccccc1N1CCN(Cc2cccs2)CC1	6.3µM*	?	.	-8%	0	-13%

ERG-DNA inh, what is marked active above.
no.	Molecule	G9a block	GLS inhibitor	ERG-DNA inh	PGK inhibitor	PI4K2A block	Pin1 inhibitor
8	CCn1c(CSc2ncn[nH]2)nc2cc(C(=O)O)ccc21	.	-4%	35µM*	i	3	?

A portion of the library; rates above refer to the full screens.
